CDC25B-CDK2 inh = primary biochemical HTRF screen for blockers of M-phase inducer phosphatase 2 binding to CDK2/cyclin A; z-score (test concentration not listed); hit rate 0.72% among 94,000; AID 1259370, 2018; HTRF CDC25B-CDK2/CyclinA binding, anti-His/anti-Flag; stronger effect = higher value;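 further: score is relative to mean and SD of negative controls; strong numbers were not always called active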
HIV TAR-Tat = TAR RNA-Tat peptide displacers, HIV-1, primary screen, biochemical, FRET, FAM/TAMRA-labeled Tat; HIV-1 TAR RNA, Tat peptide displacement FRET; stronger effect = higher value; z-score (test concentration not listed); hit rate 0.6% among 100,000;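 further: score is relative to mean and SD of negative controls; some compounds called inactive have numbers as strong as hits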
* = called active by the depositor; . = no result given.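 How the source made its calls: active means z-score from 3 up in half or more of its runs; inactive means the rest.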

SMILES	CDC25B-CDK2 inh	HIV TAR-Tat
FC(F)(F)C(=C(NC(=S)n1cnc2ccccc21)C(F)(F)C(F)(F)F)C(F)(F)F	-3.2	.
Cn1c2ccccc2c2cnn(CC(=O)N3CCCCC3)c(=O)c21	-0.3	0.37
CC(C)(C)c1ccc(/C(N)=N/OC(=O)c2ccc3c(c2)CCO3)cc1	-2	.
NC(=O)c1nc(-c2cccc(Cl)c2)nc2c1[nH]c(=O)n2C1CCCCC1	.	1.1
COC(=O)c1c(C)oc2ccc(N(C(=O)Oc3ccccc3)S(=O)(=O)c3ccccc3)cc12	-1.6	0.11
C=CCn1c(=O)sc2cc(NC(=O)C(C)(C)C)ccc21	.	0.94
C=CCOC(=O)c1sc(N2C(=O)c3oc4ccc(C)cc4c(=O)c3C2c2ccc(O)cc2)nc1C (configuration not stated)	-0.85	0.92
O=C(CN1C(=O)COc2ccc(S(=O)(=O)N3CCCCCC3)cc21)N1CCOCC1	0.25	.
COc1ccc(C2OC(=O)CC2C(=O)NC2CCCC2)cc1OC (configuration not stated)	.	1.5
CCOC(=O)C1=C(c2ccccc2)NC(SCC(=O)OC)=C(C#N)C1c1sccc1C (configuration not stated)	-0.1	0.44
O=C(O)CCCn1c(=S)[nH]c2c(sc3ccccc32)c1=O	-2.3	.
Nc1nc(Cl)nc2c1ncn2[C@@H]1O[C@H](COP(=O)(O)OP(=O)(O)OP(=O)(O)O)[C@H](O)C1O (some centres not stated)	-0.81	.
S=c1sc2c(N3CCOCC3)ncnc2n1-c1ccccc1	-0.44	.
COc1ccc(C2CC(C(F)(F)F)n3nc(C(=O)NC4CCCCC4)c(Cl)c3N2)cc1OC (configuration not stated)	-2.1	0.95
CCc1ccc(C2c3c(oc4ccc(F)cc4c3=O)C(=O)N2CCCN2CCOCC2)cc1 (configuration not stated)	-0.68	-1.1
O=C(O)[C@@H](c1ccccc1)N1Cc2ccccc2C1=O	4.1	1
c1ccc(CN2CCc3nc(N4CCN(c5ccccn5)CC4)ncc3C2)cc1	.	0.02
Cc1nc2ccccc2n1CCc1nc2c3ccccc3nc(SCC(N)=O)n2n1	.	1.2
Fc1cccc(Cl)c1CNc1n[nH]c(-c2ccco2)n1	-1	0.49
CC(C)(C)OC(=O)NCCN1C(=O)CC2(CCCC2)C1=O	-1.1	.
CCn1c(SC)nnc1-c1nonc1NC(C)=O	-1.5	-0.56
Cc1sc2ncnc(Nc3ccc4c(c3)OCO4)c2c1C	.	0.84
O=C(O)c1ccccc1SC1CC(=O)N(c2ccc(N3CCOCC3)cc2)C1=O (configuration not stated)	-0.85	0.53
Cc1ccc(-c2n[nH]c(=O)c3c2CCCC3)cc1S(=O)(=O)N1CCCCC1	-0.17	1.4
O=c1c(S(=O)(=O)c2ccc(F)cc2)cn(Cc2ccccc2F)c2ccc(F)cc12	-1.4	0.31

Reprinted from the part before: four compounds; new compounds follow.
SMILES	CDC25B-CDK2 inh	HIV TAR-Tat
Cc1sc2ncnc(Nc3ccc4c(c3)OCO4)c2c1C	.	0.84
O=C(O)c1ccccc1SC1CC(=O)N(c2ccc(N3CCOCC3)cc2)C1=O (configuration not stated)	-0.85	0.53
Cc1ccc(-c2n[nH]c(=O)c3c2CCCC3)cc1S(=O)(=O)N1CCCCC1	-0.17	1.4
O=c1c(S(=O)(=O)c2ccc(F)cc2)cn(Cc2ccccc2F)c2ccc(F)cc12	-1.4	0.31
COC(=O)CSc1nc2c(c(=O)[nH]1)C(C)(C1CCCCC1)Cc1ccccc1-2 (configuration not stated)	-0.85	.
CCN(CC)S(=O)(=O)c1c(C)nn(S(=O)(=O)c2ccc(C)c(C)c2)c1C	.	1.9
Cn1cccc1Cc1nnc(SCC(=O)Nc2ccc(F)cc2)n1-c1ccc(F)cc1	-1.3	1.1
O=c1oc(-c2ccc(Cl)cc2)nc2sc3c(c12)CCC3	-0.71	3.8
CCOc1ccc(Nc2nc(N)c3ccccc3n2)cc1	-1.1	2.1
O=C1N(Cc2cccc(Cl)c2)c2ccccc2S(=O)(=O)N1Cc1ccccc1	.	2.3
O=c1[nH]n(-c2ccc(S(=O)(=O)N3CCOCC3)cc2)c(=O)c2ccccc12	-2	-0.76
COC(=O)C1=C(C)N(Cc2cccnc2)C(=O)C1	-1.1	0.09
O=C(NC1CC1)C1CCN(c2ccc(F)cc2)C1=O (configuration not stated)	.	0.22
CC(C)(C)c1cc(N/C=C/c2nnnn2-c2ccc(Cl)cc2)no1	-2.3	.
Fc1ccccc1-c1noc(NCc2cccnc2)n1	.	-0.32
O=C(Oc1ccc(Br)cc1)c1cc(-c2ccccc2)on1	-1.2	2.4
COc1ccc(NC(=O)N2CCCC2c2ccco2)cc1OC (configuration not stated)	-0.61	1.4
COc1c(S(=O)(=O)c2ccc(Cl)cc2)cnc2ccc(F)cc12	-2.8	-0.6
CN1CCN(C(=O)c2nn(-c3ccc(Cl)cc3)c(=O)n(C)c2=O)CC1	.	-0.01
Cc1ccc(CNc2nc(NCCN(C)C)nc3c2cnn3C)cc1	.	1.7
Cc1csc2nc(CSc3nc4ccc(NC(=O)CC(C)C)cc4s3)cc(=O)n12	.	-0.64
CCOc1cc(C2NC(=O)c3[nH]nc(-c4ccc(C)cc4)c32)ccc1O (configuration not stated)	.	2.8
CCCCOc1ccc2c(=O)c(Oc3cc(C)cc(C)c3)coc2c1	-1.9	0.85
CCCCOc1ccc(C2c3c(-c4ccccc4O)n[nH]c3C(=O)N2CC2CCCO2)cc1 (configuration not stated)	-1.1	-0.3
COC(=O)c1cc(S(=O)(=O)N2CCCC(CN3CCc4ccccc4C3)C2)cn1C (configuration not stated)	.	0.57
COc1cc(OC)cc(-n2nnc(-c3nc(-c4ccc(Br)cc4)no3)c2N)c1	.	-1.3
C=CCNCc1ccc2c(c1)n(C)c(=O)n2C	-0.06	1.1
CN(C)CCNC(=O)c1ccc(CN2C(=O)CSc3ncccc32)cc1	.	1.4
CC1=CC(C)(C)N(C(=O)Nc2ccc(C)cc2)c2ccc(C)cc21	-1.5	0.27

Sorted by length of the SMILES (rising): part of the list above.
SMILES	CDC25B-CDK2 inh	HIV TAR-Tat
CCOc1ccc(Nc2nc(N)c3ccccc3n2)cc1	-1.1	2.1
Cc1ccc(CNc2nc(NCCN(C)C)nc3c2cnn3C)cc1	.	1.7
CN1CCN(C(=O)c2nn(-c3ccc(Cl)cc3)c(=O)n(C)c2=O)CC1	.	-0.01
COC(=O)CSc1nc2c(c(=O)[nH]1)C(C)(C1CCCCC1)Cc1ccccc1-2 (configuration not stated)	-0.85	.
CCCCOc1ccc(C2c3c(-c4ccccc4O)n[nH]c3C(=O)N2CC2CCCO2)cc1 (configuration not stated)	-1.1	-0.3

Next part.
SMILES	CDC25B-CDK2 inh	HIV TAR-Tat
CC(=S)Nc1ccc(-c2ccccc2)s1	0.7	.
COc1ccc(NC(=O)C2CCC(CNc3c(N4CCCC4)c(=O)c3=O)CC2)cc1OC (configuration not stated)	-1.1	.
Cc1nc2c(sc3nc4c(cc32)COC(C)(C)C4)c(=O)n1CCN1CCOCC1	-1.3	.
COC(=O)c1ccc2c(c1)N(C)CCS2	.	4.4
COc1ccc(C(=O)c2cnc3ccc(OC)cc3c2S(=O)(=O)c2ccc(OC)cc2)cc1	-0.72	1.3
Cc1ccc(-c2[nH]nc3nc(-c4ccc(F)cc4)cc(C(=O)O)c23)cc1	.	1.4
Cn1cccc1-c1cc2n(n1)CCCN2C(=O)Nc1cc(F)ccc1F	.	1.1
Cc1cc2cc(OCC(=O)O)ccc2n1C	-0.83	-0.75
CN(Cc1ccccc1)c1nnc(NC(=O)NCc2ccccc2)s1	-1.3	8*
O=C(c1cc(-c2ccco2)on1)N1CCCC1c1cccc(F)c1 (configuration not stated)	-2.5	-2.7
CCN(CC)CCNc1ncnc2c1cnn2-c1ccc(C)cc1	.	1.9
FC(F)(F)c1nc2cccnc2n1C1CCN(Cc2ccccc2)CC1	.	0.13
CC(CC(=O)Nc1ccc(F)cc1F)S(=O)(=O)c1ccc2c(c1)NC(=O)CO2 (configuration not stated)	.	1.8
Cc1ccccc1CN1C(=O)C(O)(CC(=O)c2ccco2)c2ccccc21 (configuration not stated)	0.39	.
Cc1ccc(CC(=O)c2ccc(Cl)cc2)cc1	-0.51	.
C/C=C/c1ccc(OCCCn2c(C(O)CC)nc3ccccc32)c(OC)c1 (configuration not stated)	-0.79	-0.98
CNc1oc(/C=C/c2ccc(OC)c(OC)c2)nc1C#N	-1.6	-0.99
O=C(C1CCN(c2ncnc3c2nc2n3CCCCC2)CC1)N1CCN(c2ccc(Cl)cc2)CC1	.	1.7
CCOC(=O)c1nc(Nc2cc(Cl)c(OC)cc2OC)c2ccccc2n1	.	2.2
COc1cccc(-c2noc(NCc3ccco3)n2)c1OC	.	1.2
CC(=O)OCc1cnc(C)c2oc(=O)c(-c3nc(-c4ccc(Cl)cc4)cs3)cc12	1.3	-6.1
CCN1CCN(c2ncc(C(=O)NCCN3CCOCC3)c(C)n2)CC1	.	0.82
O=C(NCc1n[nH]c(=O)c2ccccc12)C(=O)NC1CCCC1	.	1.9
COc1ccc(CNS(=O)(=O)c2ccc3c(c2)CCN3S(C)(=O)=O)cc1	.	1.5
CCC(C(=O)NC(C)c1ccccc1)n1c2ccccc2c2nc(=O)cc(C)n21 (configuration not stated)	-0.01	-1.2
Next part
SMILES	CDC25B-CDK2 inh	HIV TAR-Tat
CN1CCN(c2cc3c(cc2F)c(=O)c(S(=O)(=O)c2ccccc2)cn3C)CC1	.	-0.15
CC1CCCC(NC(=O)c2csc3c2CCCCC3)C1C (configuration not stated)	-1.8	0.08
Cc1c(Cl)cccc1N1CSC2=C(C#N)C(c3cccs3)CC(=O)N2C1 (configuration not stated)	7.9*	-0.6
CC(C)OC(=O)Cn1nnc2sc3c(c2c1=O)CCC(C(C)(C)C)C3 (configuration not stated)	-0.72	0.59
CC(=O)CSc1ccc(C(F)(F)F)cn1	-2.5	.
Cc1noc(NC(=O)Nc2c(-c3ccccc3Cl)noc2C)c1C	-2.2	.
Fc1ccc(-c2cc(-c3nc(-c4ccccc4)no3)[nH]n2)cc1	.	-0.58
O=C(COCc1cc(-c2cccs2)on1)Nc1ccc(Cl)cc1	.	1
O=C(CCC(=O)N1CCCC1)Nc1ccc(F)cc1	-1.4	.
CCOC(=O)C1Cn2c(nc3c(c2=O)C(C)(C)Cc2ccccc2-3)S1 (configuration not stated)	0.04	0.37
Cn1c(=O)c2sccc2n2c(CCCC(=O)N3CCN(C4CCCCC4)CC3)nnc12	.	0.04
O=C(CSc1ncnc2c1sc1cccc(F)c12)NCc1ccco1	.	0.27
Cc1oc(-n2cccc2)c(C#N)c1C	-0.14	-2.3
CCCCOc1ccccc1C1C(C(=O)OCC)=C(C)NC2=C1C(=O)CC(C)(C)C2 (configuration not stated)	-2.1	0.7
Nc1ccccc1OCCOCCOc1ccccc1N	-2.7	2.5
CCn1nc(C)c(CCNC(=O)Nc2ccccc2Br)c1C	.	1.5
O=S(=O)(Nc1ccc(-n2cccc2)cc1)c1ccc(Cl)c(Cl)c1	-1.1	.
O=C(Nc1ccccc1)C1=C(N2CCCC2)c2ccccc2S1(=O)=O	.	0.86
Cc1cccc(-c2nc(SCc3cc(=O)c4cccc(F)c4[nH]3)n[nH]2)c1	.	-0.24
O=c1c2c(-c3ccc([N+](=O)[O-])cc3)onc2n(-c2ccccc2)c(=O)n1-c1ccccc1	0.11	.
CC1CCC(C2OC3CC4C5CCC6CC(O)CCC6(C)C5=CCC4(C)C3C2C)OC1 (configuration not stated)	-1.2	.
CC1=C(c2ccc(C(C)C)cc2)S(=O)(=O)N=C1N1CCc2ccccc21	-0.02	0.98
CCOc1ccc(-c2nc(C#N)c(NCc3ccc(Cl)cc3)o2)cc1	0.59	1.3
COc1ccc(OC)c(NC(=O)COCc2cc(-c3cccs3)on2)c1	.	1.1
CCOC(=O)c1c(NC(=O)c2noc3c2CCc2cc(OC)ccc2-3)sc(C(C)=O)c1C	-0.02	.
(further entries)
SMILES	CDC25B-CDK2 inh	HIV TAR-Tat
Cn1cccc1C(=O)/C(C#N)=C/c1cccs1	-1.3	.
Cc1onc(-c2ccccc2)c1CNC(=O)c1cnc2ccccc2n1	-0.96	.
Cc1ccc(C)c(CN2CCCN(Cc3ccccc3Cl)S2(=O)=O)c1	.	-0.62
CCc1nn2c(=O)cc(CSCC(=O)Nc3ccc(Cl)cc3)nc2s1	.	0.24
Cc1[nH]nc(-c2ccc(S(=O)(=O)N(C)Cc3ccccc3)s2)c1C	.	0.87
O=C(NCC1COc2ccccc2O1)c1sc2ccccc2c1Cl (configuration not stated)	-1.2	.
Cc1nc(Oc2cccc(Cl)c2)c2c(C)c(C)sc2n1	.	0.22
CC1CCCN(c2nn3c(=O)c(C(=O)NCc4ccc5c(c4)OCO5)cnc3s2)C1 (configuration not stated)	.	-1
O=C(Nc1ccc(F)cc1F)C1CCN(c2ncccn2)CC1	-1.6	1.9
CCC1c2ccc(C)n2CCN1C(=O)Nc1ccccc1Br (configuration not stated)	0.67	-9.3
CCOCCCNc1cc(N2CCN(C(=O)OCC)CC2)c2noc3c2c1C(=O)c1ccccc1-3	-3	0.98
COc1cc(C(=O)N2CCN(C34CC5CC(CC(C5)C3)C4)CC2)cc(OC)c1OC	2	.
CN(C)S(=O)(=O)c1ccc(C(=O)Nc2sc3c(c2C(N)=O)CCCC3)cc1	-2.3	3.4
Cc1nc(N2CCCC2)cc(N2CCN(S(=O)(=O)c3ccccc3F)CC2)n1	-0.07	1.1
Cc1nn(C)c(C)c1Cc1c(F)cccc1Cl	-1.2	.

Full records from above. Screens in order: CDC25B-CDK2 inh, HIV TAR-Tat
Cc1[nH]nc(-c2ccc(S(=O)(=O)N(C)Cc3ccccc3)s2)c1C in the list: ., 0.87
CCC1c2ccc(C)n2CCN1C(=O)Nc1ccccc1Br (configuration not stated) in the list: 0.67, -9.3
CC1CCCN(c2nn3c(=O)c(C(=O)NCc4ccc5c(c4)OCO5)cnc3s2)C1 (configuration not stated) in the list: ., -1

Fetched by structure from the list above, 2 records:
SMILES	CDC25B-CDK2 inh	HIV TAR-Tat
COc1cc(C(=O)N2CCN(C34CC5CC(CC(C5)C3)C4)CC2)cc(OC)c1OC	2	.
CCC1c2ccc(C)n2CCN1C(=O)Nc1ccccc1Br (configuration not stated)	0.67	-9.3
